HSD17B inh: qHTS Assay for Inhibitors of HSD17B4, hydroxysteroid (17-beta) dehydrogenase 4 | 3-hydroxyacyl-CoA dehydrogenase type-2 (Homo sapiens), Q99714 | recombinant HSD17B10, NADH fluorescence kinetic; many of its hits are not listed in these tables | Potency, µM (series often up to 57.1 µM), without a hit: at the highest dose activity change, negative = inhibition, hits mostly inhibitors | actives 7.6% (n = 75,000); active = well fitted inhibition curve with a large enough effect; inconclusive = small, poorly fitted or top-dose-only effect; inactive = no such curve, though single readings can be large or run the other way;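 note: the protocol describes HADH2 (HSD17B10) and not the HSD17B4 of the title; nearly all actives have a fitted effect of over 70% in size; most hits overshoot -100% by far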
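His-tagged E. coli-expressed HADH2 at 20 nM in 100 mM Tris-HCl pH 9.0 with 0.01 % Tween-20, preincubated 15 min with compound at room temperature. Reaction with 1 mM NAD+ and 90 uM beta-hydroxybutyryl coenzyme A; NADH fluorescence (360/450 nm) read kinetically over 4 min, last minus first point.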
* = called active by the depositor; ? = inconclusive; & = joins results of further samples; [ ] = remark or other dose. % is set by controls: 0 for no effect and ±100 for the full control effect; potency is the fitted concentration of half-maximal effect. An excerpt; count on the stated rates, not on these rows.

canonical_smiles	HSD17B inh
O=S(Cc1ccc(Cl)cc1)CC(O)COCc1ccc(Cl)cc1 (stereo unspecified)	10%
Cc1cc(Cl)c(S(=O)(=O)N2CCN(c3ccc(F)cc3)CC2)cc1OCC(N)=O	2%
CC(C)[C@H](NC(=O)OC(C)(C)C)c1nnc(SCC(=O)Nc2ccc(Br)cc2)o1	5%
Cc1ncc(CO)c(CO)c1O	?
O=C1c2ccccc2N2C(=O)c3ccccc3C2N1O (stereo unspecified)	1%
Cc1cccc(Cn2c(N(C)Cc3ccccc3)nc3c2c(=O)[nH]c(=O)n3C)c1	?
Nc1ccc([N+](=O)[O-])c(N)c1	5%
COc1ccccc1N1CCN(C(=O)C2CCN(S(=O)(=O)c3ccc(F)cc3)CC2)CC1	-6%
O=C(CN1C(=O)CSc2ccccc21)NC1CCCC1	9%
CC1(C)NC(=O)N(CC(O)CN2CCCC2)C1=O (stereo unspecified)	22%

Some of the entries so far, field by field.
> Cc1cc(Cl)c(S(=O)(=O)N2CCN(c3ccc(F)cc3)CC2)cc1OCC(N)=O
  HSD17B inh: 2%
> COc1ccccc1N1CCN(C(=O)C2CCN(S(=O)(=O)c3ccc(F)cc3)CC2)CC1
  HSD17B inh: -6%

4 of the compounds above, with each value named:
Nc1ccc([N+](=O)[O-])c(N)c1
  HSD17B inh: 5%

Cc1cc(Cl)c(S(=O)(=O)N2CCN(c3ccc(F)cc3)CC2)cc1OCC(N)=O
  HSD17B inh: 2%

Cc1cccc(Cn2c(N(C)Cc3ccccc3)nc3c2c(=O)[nH]c(=O)n3C)c1
  HSD17B inh: ?

COc1ccccc1N1CCN(C(=O)C2CCN(S(=O)(=O)c3ccc(F)cc3)CC2)CC1
  HSD17B inh: -6%

Further structures follow.
canonical_smiles	HSD17B inh
CCC(C)(C)n1nnnc1C(c1cc2ccc(OC)cc2[nH]c1=O)N1CCc2ccccc21 (stereo unspecified)	-27%
COC(=O)C1=C(C)N(Cc2ccccc2)[C@]23O[C@](C(=O)OC)(C(=O)N2C1c1ccccc1)C(C(=O)OC)=C3C(=O)OC (stereo partly specified)	6%[11.4 µM]
Cc1cc(CNC(=O)[C@H](C)[C@H]2C[C@]2(C)[C@H](NC(=O)OCc2ccccc2)c2ccccc2)nn1C	-5%
CN(C)CCCN1C(=O)C(=O)/C(=C(/O)c2ccc3c(c2)OCO3)C1c1cccnc1 (stereo unspecified)	0%
COC(=O)[C@@]1(Cc2ccc(F)cc2)[C@H]2c3cc(C(=O)N4CCCC4)n(Cc4cc(F)cc5c4OCOC5)c3C[C@H]2CN1C(=O)c1ccccc1	16%
Cc1cc(SCc2ccccc2)nc(=O)[nH]1	0%
COC(=O)N1CCC[C@@]2(CCN(C(c3ccccc3)c3ccccc3)C2)C1	-2%
Cc1c(Cl)ccc2c1NC(=O)[C@]21N[C@@H](CCC(N)=O)[C@H]2C(=O)N(c3ccc(F)cc3)C(=O)[C@H]21	2%
COc1ccc(-c2ccc(NCCC3=CCCCC3)nn2)cc1OC	6%
CCOC(=O)c1snc(C(=O)NC2CCCCC2)c1N	32µM*
Cc1ccc(C(=O)N2CCN(C(=O)CN3CCOCC3)C2)cc1	0%
COc1ccc2c(CC(=O)OCC(=O)Nc3ccc4c(c3)OCO4)coc2c1	-2%
Cc1ccc(-n2c(SCC(=O)NCC3CCCO3)nc3n[nH]c(C)c3c2=N)cc1Cl (stereo unspecified)	1%
CCn1nc(CC(=O)Nc2nnc(CC(=O)N3CCCCC3)s2)c2ccccc2c1=O	-2%
CC(C)(O)c1cc(=O)sc2nc3ccccc3n12	11%
C=CCSc1ncccc1C(=O)NCc1ccccc1	-1%
CNC(=O)C1CC(=O)N(Cc2ccc3c(c2)OCO3)C(=Nc2ccc(F)cc2)S1 (stereo unspecified)	10%
COc1ccc2c(c1OC)C(=O)N(c1nccs1)C2	?
CC(=O)Nc1c(C(=O)C2CC2)oc2ccccc12	-12%
CCc1ccc(N2CC(C(=O)Nc3ccccc3F)CC2=O)cc1 (stereo unspecified)	5%

Some values from the list:
In HSD17B inh, `COc1ccc2c(CC(=O)OCC(=O)Nc3ccc4c(c3)OCO4)coc2c1` reads -2%
In HSD17B inh, `CCn1nc(CC(=O)Nc2nnc(CC(=O)N3CCCCC3)s2)c2ccccc2c1=O` reads -2%
In HSD17B inh, `C=CCSc1ncccc1C(=O)NCc1ccccc1` reads -1%
In HSD17B inh, `CCc1ccc(N2CC(C(=O)Nc3ccccc3F)CC2=O)cc1` (stereo unspecified) reads 5%

(list continues)
canonical_smiles	HSD17B inh
Cc1cc(NC(=O)C2C3C(=O)N(CCC(C)C)C(C(=O)NCc4ccccc4)C34C=CC2(C)O4)no1 (stereo unspecified)	-4%
CCOC(=O)N1CCN(C(=O)CSCc2nc(-c3ccccc3F)oc2C)CC1	-8%
COc1cc(OC)c(OC)cc1CN1CCN(c2ccccc2OC)CC1	6%
COCc1nnc(NC(=O)CC(C)c2ccccc2)s1 (stereo unspecified)	4%
COc1ccc(OC2C=CC(C#Cc3ccc(F)cc3F)OC2CO)cc1 (stereo unspecified)	-13%&-6%[11.4 µM]
Cc1nn(C(=O)c2ccco2)c(C)c1CN1C(=O)c2ccccc2C1=O	-11%
Cc1ccc(C(=O)CCNc2ccc(F)c(Cl)c2)o1	8%
CC(C)N(C(=O)C1CC(=O)OC12CCCCC2)C(C)C (stereo unspecified)	0%
COc1ccc2cc(CCNC(=O)C(C)C)c(=O)[nH]c2c1	?
Cc1ccc(C)c(OCCCC(=O)O)c1	-6%
COc1ccccc1N1CCN(C[C@@H]2CN3C(=O)N(C)c4ccccc4C3=N2)CC1	-2%
CCCCCCCCCCCCCCCC(=O)OC(CO)CO	-16%
O=C(O)CSc1nnc(Cc2ccccc2)n1-c1ccccc1	2%
CCCOc1ccc2oc(=O)c3c(c2c1)CCCN3C(=O)CN1CCN(C(=O)c2ccco2)CC1	25µM*
COCCn1c(SCC(=O)Nc2cccc(OC)c2)nnc1-c1ccccc1	6%
CCOc1cc2[nH]c(=S)n(CCCN3CCN(C)CC3)c(=O)c2cc1OCC	-1%
Nc1nncn1C(=O)c1c(Cl)cccc1Cl	4%
NNC(=O)c1ccc[n+](CCc2ccccc2)c1	7%[11.4 µM]
COc1cccc(C(=O)Nc2ccc(NC(C)=O)cn2)c1	-3%
O=C(c1ccco1)N1CCN(c2ccc(Cl)c(Cl)c2)CC1	32µM*
CCCOc1ccc(-c2nnn(CC(=O)c3ccc4c(c3)OCCO4)n2)cc1	0%
COc1ccc(OC)c(N)c1	0%
CN(C)C(=O)C12CCC(C)(c3nc4ccccc4nc31)C2(C)C (stereo unspecified)	5%
O=c1cc(-c2ccccc2)c2c([nH]1)CCCC2	-2%
COc1ccc(CCNC(=O)COc2nsnc2N2CCOCC2)cc1OC	6%
O=C1CSC(c2ccncc2)N1Cc1ccco1 (stereo unspecified)	-6%
Cc1cc(-c2cc(N)n(-c3ccccc3)n2)c(C)n1C1CCCC1	13%
O=C(O)c1ccccc1S(=O)(=O)Cc1ccccc1	-1%
Cc1cccc(C)c1NC(=O)CSc1nnnn1C	-3%
COc1cc(C(=O)OCC(=O)N2CCCC2)cc(OC)c1OC	8%

Later entries.
SMILES | HSD17B inh
CCOC(=O)C1CCCN(Cc2ccccc2F)C1 (stereo unspecified) | 5%
CCCn1nnnc1SCC(=O)c1ccc2c(c1)OCCO2 | -7%
COc1ccc2c(c1)CCc1c(C(=O)Nc3ccc(OC)c(OC)c3)noc1-2 | 97%[activator]
CN(C)CCCN1C(=O)C(=O)/C(=C(/O)c2ccc3c(c2)OCCO3)C1c1ccccn1 (stereo unspecified) | 5%
CCCCC(CC)COC(=O)c1ccccc1C(=O)O (stereo unspecified) | -1%
Cc1cc(C)c2c(c1)OC(O)(C(F)F)CC2=O (stereo unspecified) | -2%
CCOc1ccc(Nc2cc(C)nc(N3CCOCC3)n2)cc1 | ?
CN=C1SC(CC(=O)NCCc2ccc(OC)c(OC)c2)C(=O)N1C (stereo unspecified) | -8%
COC(=O)C(F)(Sc1c(C)n(C)n(-c2ccccc2)c1=O)C(F)(F)F (stereo unspecified) | 2%
C[C@]1(C2CCCC2)Cc2cc(OCC(=O)O)c(Cl)c(Cl)c2C1=O | -6%
C/C(CCN1CCc2nc(-c3ccccc3)c(-c3ccccc3)cc2C1)=N\O[C@@H](C)CN1CCCc2nc(C)c(C)cc21 | -5%[11.4 µM]
O=C(NCCc1ccncc1)Nc1ccc(Cl)cc1 | -6%
CC(=O)Nc1ccc(S(=O)(=O)NCC2CCC(C(=O)NCCCN3CCCC3=O)CC2)cc1 (stereo unspecified) | -3%
O=C(O)c1ccc2c(c1)NC(=O)C(N1CCCC1)S2 (stereo unspecified) | -13%
CC(=O)Nc1ccc(NC(=O)C(C)Oc2ccccc2F)cc1 (stereo unspecified) | 1%
Cc1nc2sc(C(c3cccs3)N3CCN(c4ccccc4)CC3)c(O)n2n1 (stereo unspecified) | 3%
CCn1c(=O)c(C(=O)NCCN2CCCCC2)c(O)c2ccccc21 | 5%
O=C(COc1ccccc1Cl)NCc1ccncc1 | 1%
CCn1c(SCC(=O)Nc2nccs2)nnc1-c1ccncc1 | 16%
COc1ccc(N2CCN(CC(=O)Nc3nc4c(s3)CC(C)CC4)CC2)cc1 (stereo unspecified) | -2%
COCCOC(=O)C1=C(C)Nc2ncnn2C1c1ccccc1 (stereo unspecified) | 9%
Cc1oc(-c2ccc(Cl)cc2)nc1CN1CCCC(C(=O)NCc2cccnc2)C1 (stereo unspecified) | 0%
CS(=O)(=O)NCCSCc1ccco1 | 0%
O=C1OC(Nc2nc3ccccc3s2)c2ccccc21 (stereo unspecified) | -1%
COc1nc(NCCc2ccc(OC)c(OC)c2)nc(NC(C)(C)CO)n1 | 3%
Cn1c(NC(=O)c2ccc(Br)o2)cc(=O)n(C)c1=O | 3%
Cn1cc(C2=C(c3cn(CCCSC(=N)N)c4ccccc34)C(=O)NC2=O)c2ccccc21 | -7%
Cc1cc2c(cc1Cl)N(C(=O)Nc1ccnc3ccccc13)CC2 | -7%
CCOc1ccc2[nH]c(=O)c(CN(CCc3ccccc3)C(=O)c3cnccn3)cc2c1 | -4%
Cn1c(=O)c2c(ncn2CC(=O)NC(C)(C)C)n(C)c1=O | -6%
COCCNC(=O)CSc1nc2ccccc2c(=O)n1-c1cccc(OC)c1 | 4%
COc1ccc(Cl)cc1NC(=O)COc1cccc(-n2cnnn2)c1 | 3%
CCCCCOC(=O)Cc1c(O)c2ccccc2n(C)c1=O | 32µM*
Cn1c(=O)n(CCc2ccccc2)c(=O)c2c1nc1n2CCCN1Cc1ccccc1 | 16%
CCS(=O)(=O)N1CCC(C(=O)N2CCc3ccccc3C2)CC1 | 9%
CCOc1ccc2[nH]c(=O)c(CN(Cc3ccc(F)cc3)C(=O)N3CCCC3)cc2c1 | 32µM*
CCN(c1cccc(C)c1)S(=O)(=O)c1cccc2nsnc12 | -7%
O=C(/C=C1\NC2(CCCC2)Cc2ccccc21)N1CCOCC1 | -4%
COc1cc(Cl)c(C)cc1NC(=O)CSc1nnc(-c2ccco2)n1CC(C)C | ?
COc1ccc(NC2=NCC(=O)N2c2ccccc2)c(OC)c1 | 1%
Cc1cc(NC(=O)c2cc(C3CC3)on2)no1 | -5%
CCCC1CCC(c2nc(-c3cccnc3)no2)CC1 (stereo unspecified) | 2%
CCOc1cc(N2CCOCC2)c(OCC)cc1NC(=O)c1cc(-c2ccco2)nc2ccccc12 | -26%
O=C1CCC[C@@H](C2=CCCCC2=O)C1 | 6%[11.4 µM]
COc1cc(CNc2ccc3c(c2)CCC3)cc(OC)c1O | -13%
O=C(Cn1c(NCCO)nc2ccccc21)NCCc1ccccc1 | 0%
O=C(CCCc1nc2ccccc2s1)Nc1nccs1 | -14%
c1ccc2c(NC3CCCC3)nnc(NC3CCCC3)c2c1 | 25µM*
COc1ccc(NC(=O)CCNC(C)=O)cc1NS(=O)(=O)c1ccc(F)cc1 | -18%
CC(=O)Nc1cccc(OCC(=O)Nc2ccc(F)cc2)c1 | 0%
CCn1cc(C2N3CC4(C)CN2CC(C)(C3)C4=O)c2ccccc21 (stereo unspecified) | 5%
CCC(C)NC(=O)C1CCC(=O)N(c2cc(OC)c(OC)c(OC)c2)C1c1ccc(OC)cc1 (stereo unspecified) | 7%
CCCn1cnc2cc(NCc3ccccn3)ccc21 | -4%
CC(=O)c1ccc(NC(=O)CSc2nnc(Cn3c(=O)sc4ccccc43)n2C)cc1 | ?
O=C(O)C1C2CCC(O2)C1C(=O)NCc1ccncc1 (stereo unspecified) | 5%
O=C(COc1cccc2ccccc12)N1CCN(c2ccccc2)CC1 | ?
C[C@@H](c1ccccc1)N1C(=O)[C@@H]2[C@H]3C(=CC[C@H]2C1=O)C(=O)[C@H]1O[C@H]1[C@H]3O | -9%[11.4 µM]
COc1ccc2[nH]cc(C(=O)CN3CCCC(C)C3)c2c1 (stereo unspecified) | -4%
COc1ccc(NC(=O)CCN2CCCC(C)C2)cc1 (stereo unspecified) | 5%
O=C(Cn1c(-c2cncs2)nc2ccccc21)NC1CCCC1 | -21%

(further entries)
SMILES | HSD17B inh
O=C(O)C1CC(=O)N(CCC23CC4CC(CC(C4)C2)C3)C(=Nc2ccccc2)S1 (stereo unspecified) | ?
COc1ccc(C)cc1N(CC(=O)NC1CCCC1)C(=O)CCC(=O)Nc1cc(C)on1 | -4%
CCCCn1c(=O)n(CC(O)c2ccccc2)c(=O)c2c1ncn2C1CCCC1 (stereo unspecified) | 6%
CCCCc1ccc(NC(=O)C2CCN(S(C)(=O)=O)CC2)cc1 | 1%
O=C(Nc1nc(-c2cccs2)cs1)c1ccc(S(=O)(=O)N2CCCCC2)cc1 | ?

Screens from PubChem.
